# Assay outcomes (PubChem)
# Vaccinia pol inh – vaccinia E9 polymerase processive synthesis inhibitors, primary screen, biochemical, absorbance; Vaccinia virus DNA polymerase (E9) processive complex; in vitro processive DNA synthesis, absorbance read-out; hits give low values; some inactives read as strong as hits; normalized absorbance, % (test concentration not listed); 46,000 compounds, 0.94% hits; AID 493162, 2011;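 active = replicate mean up to 90% and picked by the depositor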;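 also: 100% = median of the test wells of a plate; 100 nL library stock went into each well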
# Active calls of the source: *; & = joins results of further samples.
# The opening 18 records, to show the layout:
molecule | Vaccinia pol inh
CCCn1nc(NC(=O)c2cccc(Cl)c2)c2cc3cc(C)ccc3nc21 | 102
O=C(NCCc1ccccc1)C1CCCN(c2ncnc3c2sc2cccc(F)c23)C1 (stereo unspecified) | 102
Cc1cc(C(=O)Nc2cccc(Cl)c2)on1 | 102
Cc1ccc(NC(=O)C2CCCN(S(=O)(=O)c3ccccc3)C2)cc1 (stereo unspecified) | 100
CCOC(=O)Cc1csc(NC(=O)c2ccc(Br)cc2F)n1 | 100
COC(=O)c1cc(S(=O)(=O)Nc2cccc(-c3cnco3)c2)oc1C | 109
O=C(COCC1CCCN2CCCCC12)Oc1ccccc1 (stereo unspecified) | 99
Cc1cc(Oc2ccccc2)nc(-c2ccc(Br)cc2)n1 | 103
N#C/C=C(\N)c1ccc(Oc2ccc(Cl)c(F)c2)cc1 | 101
CCC1Oc2ccc(Cl)cc2N(CC(=O)NCCc2ccccc2)C1=O (stereo unspecified) | 92
c1ccc(CC2CCN(CCCNc3nc4ccccc4n4nnnc34)CC2)cc1 | 80
O=C(O)CCCOc1cccc(Br)c1 | 98
COc1ccc(NC(=S)NCCCC2C=NNC2=O)cc1 (stereo unspecified) | 94
COc1ccc(C2OCC(C)(C(=O)O)CO2)cc1 (stereo unspecified) | 100
Nc1no[n+]([O-])c1-c1ccccc1 | 100
CC1SC(=S)N(c2ccc(N(C)C)cc2)C1=O (stereo unspecified) | 100
Cn1cccc1Cc1nnc(SCC(N)=O)n1CCc1ccccc1 | 100
O=S(=O)(NC1CCCCC1)c1ccc(Cl)s1 | 100

# This part in full, from the first entry:
molecule | Vaccinia pol inh
CCCn1nc(NC(=O)c2cccc(Cl)c2)c2cc3cc(C)ccc3nc21 | 102
O=C(NCCc1ccccc1)C1CCCN(c2ncnc3c2sc2cccc(F)c23)C1 (stereo unspecified) | 102
Cc1cc(C(=O)Nc2cccc(Cl)c2)on1 | 102
Cc1ccc(NC(=O)C2CCCN(S(=O)(=O)c3ccccc3)C2)cc1 (stereo unspecified) | 100
CCOC(=O)Cc1csc(NC(=O)c2ccc(Br)cc2F)n1 | 100
COC(=O)c1cc(S(=O)(=O)Nc2cccc(-c3cnco3)c2)oc1C | 109
O=C(COCC1CCCN2CCCCC12)Oc1ccccc1 (stereo unspecified) | 99
Cc1cc(Oc2ccccc2)nc(-c2ccc(Br)cc2)n1 | 103
N#C/C=C(\N)c1ccc(Oc2ccc(Cl)c(F)c2)cc1 | 101
CCC1Oc2ccc(Cl)cc2N(CC(=O)NCCc2ccccc2)C1=O (stereo unspecified) | 92
c1ccc(CC2CCN(CCCNc3nc4ccccc4n4nnnc34)CC2)cc1 | 80
O=C(O)CCCOc1cccc(Br)c1 | 98
COc1ccc(NC(=S)NCCCC2C=NNC2=O)cc1 (stereo unspecified) | 94
COc1ccc(C2OCC(C)(C(=O)O)CO2)cc1 (stereo unspecified) | 100
Nc1no[n+]([O-])c1-c1ccccc1 | 100
CC1SC(=S)N(c2ccc(N(C)C)cc2)C1=O (stereo unspecified) | 100
Cn1cccc1Cc1nnc(SCC(N)=O)n1CCc1ccccc1 | 100
O=S(=O)(NC1CCCCC1)c1ccc(Cl)s1 | 100
O=C(c1ccc(CN2C(=O)CCn3nccc32)cc1)N1CCOCC1 | 95
O=C(CN1C(=O)/C(=C/c2ccccc2)Sc2ccccc21)NC1CCCC1 | 88
COc1ccc(S(=O)(=O)N2CCCC2C(=O)n2nc(C)cc2C)cc1 (stereo unspecified) | 100
O=C(NCCc1ccccn1)c1cc(C(=O)C2CCCCC2)c[nH]1 | 109
CCOC(=O)c1nc2ccccc2c(C)c1C | 102
COc1cc2c(C(=O)N3CCC4(CC3)OCCO4)cn(CC(C)C)c(=O)c2cc1OC | 101
CC(C)CN(CC(C)C)C(=O)CCn1c(=O)oc2ccccc21 | 103
COc1ccc(OC)c(CNC(=O)CN2Cc3ccccc3C2=O)c1 | 96
O=C1CCCC2=C1C(c1cccs1)C1C(=O)c3ccccc3C1=N2 (stereo unspecified) | 100
CC(=O)NC(=O)/C(=C(/C)Nc1ccccc1)c1ccccc1 | 104
CC(N)Cc1ccccc1 (stereo unspecified) | 99
N#C/C=C/N(C#N)c1ccccc1 | 101

# Following part.
molecule | Vaccinia pol inh
COc1ccc(/C(N)=C/C2=NC(C)(C)CO2)cc1 | 99
O=C1CC(N2C(=O)C3CC=CCC3C2=O)C2COC1O2 (stereo unspecified) | 101
O=C(C1CC(c2ccc(F)cc2)=NO1)N1CCCCC1 (stereo unspecified) | 97
CC1CN(Cc2c(O)ccc3ccccc23)CC(C)O1 (stereo unspecified) | 107
CCCc1cc(=O)oc2c(CN3CCCCC3)c(O)ccc12 | 98
COc1ccc(N2C(=O)C(O)=CC2(OC)c2ccccc2)cc1 (stereo unspecified) | 95
COC(=O)C(N)CS (stereo unspecified) | 94
Nc1c(C(=O)c2ccc(Br)cc2)sc2nc(-c3cccs3)ccc12 | 97
Cc1ccc(O)c(-c2cc(-c3ccc(C(C)(C)C)cc3)n[nH]2)c1 | 98
O=c1c(O)c(-c2ccc(O)c(O)c2)oc2cc(O)cc(O)c12 | 96&85
CCOc1cc(CNC2CN3CCC2CC3)ccc1OCc1ccccc1 (stereo unspecified) | 102
CC(C)NCC(O)COc1ccc(C(C)(C)C)cc1 (stereo unspecified) | 96
CCOC(=O)C(C)Sc1nnc(NC(=O)C2CC2)s1 (stereo unspecified) | 102
O=C1OC(c2ccco2)=N/C1=C\c1ccco1 | 91
O=C(c1ccccc1)N1CCc2c([nH]c3ccccc23)C1c1ccccc1 (stereo unspecified) | 99
CCOC(=O)c1c(CS(=O)c2ccc(Cl)cc2)oc2c(F)c(F)c(F)c(F)c12 (stereo unspecified) | 99
O=C1CC(c2ccccc2)CC(O)=C1C=NCc1cccc(C(F)(F)F)c1 (stereo unspecified) | 100
COc1ccc(OC)c(NC(=O)CSc2nccn2-c2cccc(Cl)c2)c1 | 101
CC(C)C(=O)N1N=C(c2ccccc2)CC1(O)C(F)(F)F (stereo unspecified) | 100
Nc1ccc(S(=O)(=O)Nc2ncccn2)cc1 | 100
O=C(Nc1ccc(NC(=O)c2cccnc2)cc1)c1cccnc1 | 94
COC1=C2C[C@@H](C)C[C@H](OC)[C@H](O)[C@@H](C)/C=C(\C)[C@H](OC(N)=O)[C@@H](OC)/C=C\C=C(/C)C(=O)NC(=CC1=O)C2=O | 100
O=C1/C(=C\c2cccs2)N=C(c2ccccc2)N1Cc1ccc(Cl)cc1 | 104
COc1ccc(-c2nn(-c3ccccc3)cc2/C=C\C(=O)N2CCCCC2)cc1 | 108
CC(C)(C)OC(=O)N1CCC(c2cc(=O)n3[nH]cc(C(=O)Nc4ccc(F)c(Cl)c4)c3n2)CC1 | 103
Cc1ccc(N=Cc2cn(-c3ccccc3)nc2-c2ccccc2)cc1 | 101
Cc1cc(COc2ccccc2OCCN2CCN(C)CC2)no1 | 106
CCc1cc2c(cc(C(=O)NCc3ccccc3)n2C)s1 | 100
O=C(Nc1cccc(C(F)(F)F)c1)/C(=C\c1cccs1)c1ccsc1 | 100
COC(=O)c1sc2ccccc2c1NC(=O)c1ccco1 | 100

# (list continues)
molecule | Vaccinia pol inh
Cc1cc2cc(CNC(=O)C34CC5CC(CC(C5)C3)C4)ccc2n1C | 105
C=CCc1cc2c(C)cc(=O)oc2c(C)c1O | 100
CC1CN/C(=C/C(=O)c2ccccc2)C(=O)N1 (stereo unspecified) | 108
Cn1cccc1Cc1nnc(SCC(=O)NCc2ccco2)n1CCc1ccccc1 | 100
Cc1cc(C)n(CCOc2ncc(C(F)(F)F)cc2Cl)n1 | 92
COC(=O)c1ccccc1N1CC(C)(C)C1=O | 88
Cc1ccc(SCCC(=O)O)cc1 | 100
O=C(O)c1ccccc1C(=O)NCCCn1ccnc1 | 102
CCC(=O)c1ccc(OCC(=O)N2c3ccccc3CC2C)cc1 (stereo unspecified) | 105
CCn1c(-c2ccccc2)n[nH]c1=S | 99
Cc1cc(Cl)nc(Cl)c1C(N)=O | 100
CSc1cc(C(C)(C)C)nn1S(=O)(=O)c1ccc(F)cc1F | 94
Cc1ccc(-c2nnc(-c3ccccc3)o2)cc1 | 103
O=S1(=O)N=C(Nc2ccccc2)c2ccccc21 | 104
O=C(CSc1nnc(Cc2cc(=O)[nH]c(=O)[nH]2)n1-c1ccc(Cl)cc1)N1CCCCC1 | 103
CC(C)(C)C(=O)COC(=O)C1CC(=O)N(c2ccccc2)C1 (stereo unspecified) | 88
CN=C(NC)SC1CC(=O)N(c2ccccc2F)C1=O (stereo unspecified) | 100
Cc1cccc(-n2cnc3cc(C(=O)NCCN4CCOCC4)ccc32)c1 | 91
Cc1onc(-c2ccccc2)c1C(=O)N(Cc1ccccc1)Cc1ccccc1 | 98
Cc1sc2ncnc(Sc3nnc4ccccn34)c2c1C | 99
CCC(=O)c1ccc2c(c1)N(CC(C)N(C)C)c1ccccc1S2 (stereo unspecified) | 100
CCOC(=O)C1=C(c2ccccc2)N=C2SCC(=O)N2C1c1ccc(OCC)cc1 (stereo unspecified) | 100
COc1cc(/C=C2/C(=O)ON=C2C)cc(Cl)c1OCc1ccc(C)cc1 | 101
CN(C)CCC(c1ccccc1)c1ccccn1 (stereo unspecified) | 102
COc1cccc(S(=O)(=O)NCc2ccco2)c1 | 97
CCOC(=O)CCc1c(C)c(C#N)c2nc3ccccc3n2c1C | 100
O=C(CSc1nnc(Cc2ccccc2)o1)N1CCCc2ccccc21 | 101
O/N=C/c1c(F)cccc1F | 106
N#CCSc1nc(N)c(C#N)c(-c2cccc(F)c2)c1C#N | 100
COc1ccccc1Oc1ccc(S(=O)(=O)N2CCCC2)cc1 | 97

# (cont.)
molecule | Vaccinia pol inh
CC(C)(C)NC(=O)CSc1nc2ccc(N3C(=O)c4ccccc4C3=O)cc2s1 | 100
C=CCSc1n[nH]c(=O)n1-c1cccc(Cl)c1 | 99
CC1(C)CC(=O)C(C=NC(CO)(CO)CO)=C(O)C1 | 100
O=C1c2ccccc2S(=O)(=O)N1Cc1cccc(Cl)c1 | 103
CC1(C)CC(=O)C2=C(C1)N(c1ncn[nH]1)C(N)=C(C#N)C2c1ccsc1 (stereo unspecified) | 100
CC1=C(O)C(=O)OC1c1c(F)cccc1Cl (stereo unspecified) | 95
O=C(Nc1cccnc1Cl)c1ccc(Oc2ccccc2)cc1 | 97
C=C(C)Cn1c(-c2ccco2)nc2ccccc21 | 97
CCCCn1c(C2CC(=O)N(c3ccccc3)C2)nc2ccccc21 (stereo unspecified) | 97
COc1ccc2oc(C)c(C(=O)CSc3ccccc3)c2c1 | 100
CCOC(=O)c1cnc2c(ccc3ccccc32)c1NCC(C)C | 100
Cc1ncc(C[n+]2csc(CCO)c2C)c(N)n1 | 100
CC(=O)N1CCOc2cc(S(=O)(=O)NCCc3cccc(C)c3)ccc21 | 94
N#Cc1ccc(-c2csc(NC(=O)C3CCCCC3)n2)cc1 | 101
Cc1nc2ccc(Cl)cc2c(-c2ccccc2)c1C(=O)N1CCOCC1 | 94
Cc1cc(C)c(C#N)c(SCCN2CCCCC2)n1 | 99
CCOC(=O)c1c(-c2ccccc2)c2cc(Cl)ccc2[nH]c1=O | 100
Nc1ccc(S(=O)(=O)N2CCCC2)cc1Cl | 99
O=C(CSc1c2c(nc3ccccc13)CCCC2)NCc1ccco1 | 104
CNC(=O)COC(=O)c1ccccc1Oc1ccccc1 | 98
CCc1ccc(Oc2coc3cc(OC(=O)c4cccs4)ccc3c2=O)cc1 | 100
COc1ccc(-c2n[nH]c(C(F)(F)F)c2-c2cc3ccccc3o2)c(O)c1 | 63*
O=C(Cn1c(=S)[nH]c2ccccc21)c1ccc(-c2ccccc2)cc1 | 96
CC1(C)CC(=O)C(C=NCc2ccc(F)cc2)=C(O)C1 | 100
Cc1ccc(-c2cc(C(F)(F)F)c3c(N)c(C(=O)c4ccc5c(c4)OCO5)sc3n2)o1 | 101
O=C(NCc1ccncc1)c1cc2n(n1)C(C(F)(F)F)CC(c1ccco1)N2 (stereo unspecified) | 87
COc1ccc(OC(=O)c2cc3ccccc3o2)cc1 | 100
N#Cc1ccccc1NC(=O)CSc1ccccn1 | 98
O=C1CCCN2N=C(SCc3ccccc3F)SC2=N1 | 99
CCCN(CCC)C(=O)c1ccc2c(c1)N(Cc1ccccc1C)C(=O)c1ccccc1S2=O (stereo unspecified) | 95

# The results go on.
molecule | Vaccinia pol inh
Brc1ccccc1-c1nc2ccccc2c2nc3ccccc3n12 | 99
O=C(COc1ccccc1)NCc1cccs1 | 101
Cc1ccc(C(=O)NCC(=O)OCc2c(F)cccc2Cl)s1 | 100
Cc1cc(N2CCCC2)nc2ccc(NC(=S)NC(C)C)cc12 | 95
CSc1nn(-c2ccccc2)cc1-c1nc(-c2ccccc2)cs1 | 102
Cc1onc(-c2ccccc2)c1C(=O)N1CCNCC1 | 101
Cc1c(N2CCCC2)cc2c(c1N)C(C)(C)CC2(C)C | 91
CCN(CC)Cc1cc(C(=O)O)c(-c2ccccc2)o1 | 97
O=C1CCCN2N=C(SCC(=O)N3CCC(Cc4ccccc4)CC3)SC2=N1 | 98
CS(=O)(=O)c1nc(Oc2cccc(C(F)(F)F)c2)cc(Oc2cccc(C(F)(F)F)c2)n1 | 100
N#CCSc1ncc(C(F)(F)F)cc1Cl | 110
CCOc1ccc(NC(=O)Cc2ccccc2OC)cc1 | 101
O=C(Cc1cccs1)Nc1noc2ccccc12 | 104
CCOC(=O)C1=C(C)NC(=S)NC1c1ccc(OCC(=O)N2CCCCC2)cc1 (stereo unspecified) | 100
O=C(NCCN1C(=O)CSC1=O)c1ccccc1 | 101
Cc1cc(=O)oc2cc(OC(C)C)c(Cl)cc12 | 98
CCN(C(=O)c1coc(=O)c2ccccc12)c1cc(OC)ccc1OC | 92
O=C(CCCC(=O)c1ccccc1)Nc1ccc(O)cc1 | 89
C=CCN(CC=C)S(=O)(=O)c1ccc(C(=O)N2CCOCC2)cc1 | 100
COc1ccccc1N1CCN(C(=O)C(OC(C)=O)c2ccccc2)CC1 (stereo unspecified) | 100

# This is a subset. The share of hits here may be higher or lower than overall.
